VACV mCherry inh = vaccinia inhibition (mCherry reporter) | Vaccinia virus mCherry reporter infection, fluorescence; about a quarter of the inactives have no number | AID 720579 | 0.63% of 310,000 active | Potency, µM (highest dose often 36.5 µM), inactives show at the top dose activity change, negative = inhibition, actives largely listed as inhibitors; active = well fitted inhibition curve with a large enough effect; inconclusive = small, poorly fitted or top-dose-only effect; inactive = no such curve, though single readings can be large or run the other way; tested in A549 cells; note: nearly all actives have a fitted effect of over 35% in size; inactives centre near -10
VACV Venus inh = vaccinia inhibition (Venus reporter). 0.46% of 330,000 active. AID 720580. Vaccinia virus Venus reporter expression, fluorescence. Potency, µM (top dose mostly 36.5 µM), inactives show top-dose activity change, negative = inhibition, most hits filed as inhibitors; active means well fitted inhibition curve with a large enough effect; inconclusive means small, poorly fitted or top-dose-only effect; inactive means no such curve, though single readings can be large or run the other way; tested in A549 cells; note: nearly all actives have a fitted effect of over 30% in size; inactives centre near -10
* = called active by the depositor; i = inactive; ? = inconclusive; · = not tested or not shown; ! = repeats disagree; [ ] = dose if it differs, or a comment. % is set by controls: 0 for no effect and ±100 for the full control effect; potency is the fitted concentration of half-maximal effect.

SMILES | VACV mCherry inh | VACV Venus inh
COc1cccc(CNC(=O)CCC2CCCN(C/C=C/c3ccccc3OC)C2)c1 (configuration not stated) | i | -7.8%
Oc1ccc(N2CCN(c3nc(-c4cccs4)nc4ccccc34)CC2)cc1 | -13.9% | 7.1%
O=C(Oc1cc2oc(=O)c3c(c2cc1Cl)CCCC3)c1cccs1 | -16.2% | -20.5%
Cc1ccccc1C(=O)NC1CCN(CC(=O)Nc2ccc(Br)cc2)CC1 | i | -22.5%
O=C(c1ccc(Br)o1)N1CCC(Cc2ccccc2)CC1 | i | -20.2%
COc1cc2c(cc1OC)CC1(CCCCC1)N=C2 | -12.3% | -8.2%
CCOC(=O)C1=C(C)NC(=O)C1CC(=O)O (configuration not stated) | -13.2% | -10.7%
O=c1[nH]ncc(N2CCCC2)c1Cl | -14.0% | -12.9%
COCCCN1C(=O)C(CC(=O)NCCCN(C)C)CC(C(=O)N2CCCCCC2)=C1C (configuration not stated) | -1.4% | -0.7%
CC(C#N)(NC(=O)CN1CCN(S(=O)(=O)c2cccc(F)c2)CC1)C1CC1 (configuration not stated) | -9.4% | -14.8%
CCc1ccc(CN2C(=O)c3ccccc3C2C(=O)NCCc2ccc(OC)c(OC)c2)cc1 (configuration not stated) | -13.2% | -11.0%
COc1ccc(NC(=O)CCCn2cc([N+](=O)[O-])cn2)cc1 | 5.8% | 10.1%
COc1ccc(OC)c(S(=O)(=O)NCCc2csc(-c3cccc(F)c3)n2)c1 | -23.6% | -16.5%
O=C(NCCCN1CCN(c2ccccc2F)CC1)C1CCC(=O)N1C1CCCC1 (configuration not stated) | ? | -11.5%
Cc1noc(C)c1S(=O)(=O)N1CCC(C(=O)NC2CCN(Cc3ccccc3)CC2)CC1 | -2.3% | -19.2%
COc1cccc(C2=CC(c3ccccc3O)NC(C)(C)N2)c1 (configuration not stated) | 10.6% | -12.4%
Cc1nc(-c2ccccc2)sc1C(=O)O | -12.2% | 1.9%
O=C1CC(=O)N(c2ccc3c(c2)OCO3)C(=O)N1 | -8.8% | ?
CCOC(=O)C1CCCN(C(=O)c2c(-c3ccccc3)noc2C)CC1 (configuration not stated) | 8.9% | 5.9%
COc1cc(NC(=O)CCc2c(C)nc3c(-c4ccc(F)cc4)c(C)nn3c2C)cc(OC)c1OC | -23.5% | -18.4%
COCCN1C[C@@H](CO)O[C@@H](n2cnc3c(NCc4ccco4)ncnc32)C1 | 50.4%[activator] | 6.1%
CCc1nnc(NS(=O)(=O)c2ccc(N=Cc3c(O)n(-c4ccc(Cl)cc4)c(=O)[nH]c3=O)cc2)s1 | -3.3% | 4.8%
Cc1ccc(S(=O)(=O)NC(C(=O)Oc2ccc3ccc(=O)oc3c2)c2ccccc2)cc1 (configuration not stated) | -14.7% | -11.7%
CCN1CCN(CC(=O)N2N=C(c3cccs3)CC2c2ccc(OC)cc2)C(=O)C1=O (configuration not stated) | -4.6% | 7.9%
Cc1ccc(-c2nnc(Nc3cccc(Br)c3)c3ccccc23)cc1S(=O)(=O)NCC1CCCO1 (configuration not stated) | -24.7% | -15.3%

For reference, two of the compounds above.
SMILES | VACV mCherry inh | VACV Venus inh
COc1cccc(CNC(=O)CCC2CCCN(C/C=C/c3ccccc3OC)C2)c1 (configuration not stated) | i | -7.8%
Oc1ccc(N2CCN(c3nc(-c4cccs4)nc4ccccc34)CC2)cc1 | -13.9% | 7.1%

More results:
SMILES | VACV mCherry inh | VACV Venus inh
O=C(COc1cccc2ccccc12)Nc1cc(Cl)ccc1C(=O)O | i | -3.3%
Cc1onc(C(=O)Nc2c(C)n(C)n(-c3ccccc3)c2=O)c1[N+](=O)[O-] | i | -1.8%
COc1ccc(N2C(=O)CC(N3CCN(S(=O)(=O)c4ccc(Cl)cc4)CC3)C2=O)cc1 (configuration not stated) | 0.7% | -1.8%
NC(=O)C1CCN(c2c([N+](=O)[O-])cc(C(F)(F)F)cc2[N+](=O)[O-])CC1 | -14.1% | -13.4%
CCN1CCN(c2ncc3c(n2)CCN(Cc2ccc(OC(C)C)cc2)C3)CC1 | -13.2% | -15.4%
COc1cccc(Cn2c(=O)n(-c3cccc(Cl)c3)c(=O)c3c4c(sc32)CN(C(C)=O)CC4)c1 | -20.2% | -14.1%
O=C(CSc1cn(CC(=O)N2CCCCC2)c2ccccc12)NCc1ccccc1Cl | -13.5% | -13.0%
COc1cccc(/C=c2\s/c(=C/C(=O)c3ccc(C)cc3)[nH]c2=O)c1OC | -8.9% | -7.3%
COc1ccc(OC)c(S(=O)(=O)N2CCC(C(=O)NCCc3ccccc3)CC2)c1 | ? | -6.5%
CC1CN(S(=O)(=O)c2ccc(C(=O)Nc3nnc(-c4ccco4)o3)cc2)CC(C)O1 (configuration not stated) | -9.1% | -17.2%
COC(=O)c1c(-c2cccs2)csc1NC(=O)c1cccnc1 | · | -16.8%
CCOC(=O)c1[nH]c(C)c(CCC(=O)NCc2ccccc2Cl)c1C | -0.4% | 7.1%
Cc1cc(C)c(NC(=O)CN(C)S(=O)(=O)c2ccc3c(c2)n(C)c(=O)c(=O)n3C)c(C)c1 | -21.2% | -29.6%
CC1=NN(c2cccc(Cl)c2)C(=O)C12CC(C)=C(C)CS2 (configuration not stated) | -23.3% | -19.9%
CCS(=O)(=O)c1ncc(Cl)c(C(=O)Nc2ccc(S(=O)(=O)N(C)c3ccccc3)cc2)n1 | -28.1% | 14.1µM*!
O=C1NCCN(Cc2ccc(Cl)c(F)c2)C1CC(=O)N1CCc2ccccc2C1 (configuration not stated) | -22.3% | 1.5%
CSc1ccc(CCNC(=O)c2cc(-c3ccccc3)c(N3CCOCC3)s2)cc1 | -3.6% | -24.5%
O=C(CCc1ccccc1)N1CCCN(C(=O)CCc2ccccc2)CC1 | -4.2% | -9.7%
COc1ccc(C(=O)Oc2ccc(C(C)=O)cc2)c(OC)c1 | · | -21.1%
CC(C)(C)c1ccc(C(=O)N2CCC2(C)C(=O)NCC(F)(F)F)cc1 (configuration not stated) | 52.4%[activator] | 12.6%
Cc1ccc([C@H]2C(C(=O)O)=CC[C@@H](c3ccc(Cl)cc3)N2S(=O)(=O)c2ccccc2C)cc1 | -6.6% | -12.0%
COc1cc(OC)cc(-c2noc(-c3csc([C@@H]4C[C@H](O)[C@@H](CO)O4)n3)n2)c1 | 11.4% | -13.7%
Cc1ccc(Cl)cc1N1CCN(C(=O)CN2C(=O)COc3ccc(S(=O)(=O)N4CCOCC4)cc32)CC1 | -4.5% | 10.8%
COc1cc(C(=O)Nc2ccccc2C(=O)NCc2cccnc2)cc(OC)c1OC | -12.6% | -6.9%
CC(NC(=O)c1ccccc1)C(=O)N/N=C/c1cccc([N+](=O)[O-])c1 (configuration not stated) | -14.1% | -5.7%

Record cards, from the list above.
`COC(=O)c1c(-c2cccs2)csc1NC(=O)c1cccnc1` is entered as VACV mCherry inh: ·; VACV Venus inh: -16.8%
`Cc1cc(C)c(NC(=O)CN(C)S(=O)(=O)c2ccc3c(c2)n(C)c(=O)c(=O)n3C)c(C)c1` is entered as VACV mCherry inh: -21.2%; VACV Venus inh: -29.6%

(further entries)
SMILES | VACV mCherry inh | VACV Venus inh
COc1ccccc1OCCNC(=O)C(CCSC)NC(=O)c1ccccc1Cl (configuration not stated) | -15.6% | -23.9%
CC(=O)Nc1cc(-c2cccc(CO)c2)cn2c(-c3ccc(C(C)=O)cc3)cnc12 | i | -8.0%
Cc1ccc(NC(=O)CCCNC(=O)c2ccc(Cl)cc2)cc1S(=O)(=O)N1CCOCC1 | -17.9% | -16.8%
N#CC(=Cc1ccccn1)c1nc(-c2ccc(Cl)cc2)cs1 | -14.1% | -17.7%
Cc1cc(Cl)ccc1NC(=O)CCCN1C(=O)CCC1=O | i | -15.8%
Cc1ccc(CSc2cn(CC(=O)N3CCCCCC3)c3ccccc23)cc1 | -7.6% | -10.0%
COc1cccc(CC(NC(C)=O)C(=O)NC2CCN(c3nc(C)cc(C)c3C#N)CC2)c1OC (configuration not stated) | i | -19.1%
CC[C@]12c3[nH]c4ccc(OC)cc4c3CCN1C(=O)C(CC(=O)NC(C)(C)C)C[C@@H]2C(=O)N1CCN(C(=O)c2ccco2)CC1 (some centres not stated) | -10.3% | -14.9%
Cc1ccc2nc(-c3ccccc3)cc(C(=O)NNC(=O)c3csc(N4CCOCC4)n3)c2c1 | -10.5% | -26.5%
COc1ccccc1N1CCN(C(=O)c2cc3cc(Br)ccc3oc2=O)CC1 | i | -9.6%
O=C(NC(CC(=O)N1CCN(c2ccccc2O)CC1)c1ccccc1)c1ccccc1Cl (configuration not stated) | -21.9% | -14.6%
COc1ccc(Cl)cc1NC(=O)COC(=O)CCNC(C)=O | -13.4% | -10.0%
CN1CCN(Cn2cc(/C=C/C(=O)c3ccccc3)c3ccccc32)CC1 | ? | ?
COc1ccc(NC(=O)Cn2ccn(-c3ccc(F)c(F)c3)c(=O)c2=O)cc1Cl | 2.7% | 2.0%
CCOc1ccc(N2CC(NC(=O)c3cccs3)CC2=O)cc1 (configuration not stated) | -5.9% | -4.8%
CCC1=C2CC[C@H]3C(=O)N(CC)C(=O)[C@H]3[C@H]2[C@@]2(Cc3ccccc3)C(=NCc3ccccc3)OC(=O)N2C1=O | -2.5% | ?
CC1(C(=O)NS(=O)(=O)Cc2ccccc2C(F)(F)F)CCN1C(=O)Cc1cccs1 (configuration not stated) | i | -3.6%
Cc1cc(S(=O)(=O)N2CCC3(CC2)OCCO3)c(C)cc1Cl | -15.7% | -13.4%
CCNC(=S)NNC(=O)C(c1ccccc1)c1ccccc1 | i | -9.7%
O=C(Cn1ccc([N+](=O)[O-])n1)NCc1cccs1 | -12.9% | -9.8%
Cc1ccc(CCNC(=O)CN2C(=O)CSc3ccc(S(=O)(=O)N4CCOCC4)cc32)cc1 | -1.9% | -25.1%
COc1cc(/C=C(\C#N)C(N)=O)cc(CSc2nc3ccccc3s2)c1O | -1.2%[60.7 µM] | -9.9%[60.7 µM]
CCCCCCN1C[C@H](O)[C@@H](n2cc(C3CC3)nn2)C[C@@H]1c1ccc(Cl)cc1 | -7.1% | 4.0%
O=C1NC(=O)C(Cc2ccccc2)C(=O)N1 | -17.2% | -15.1%
NNc1ncnc2sc3c(c12)CCC3 | i | -4.2%

As entered above:
VACV Venus inh result of COc1cc(/C=C(\C#N)C(N)=O)cc(CSc2nc3ccccc3s2)c1O = -9.9%[60.7 µM]
VACV mCherry inh result of COc1ccc(NC(=O)Cn2ccn(-c3ccc(F)c(F)c3)c(=O)c2=O)cc1Cl = 2.7%
VACV Venus inh result of CC1(C(=O)NS(=O)(=O)Cc2ccccc2C(F)(F)F)CCN1C(=O)Cc1cccs1 (configuration not stated) = -3.6%
VACV Venus inh result of Cc1cc(S(=O)(=O)N2CCC3(CC2)OCCO3)c(C)cc1Cl = -13.4%

Next section.
SMILES | VACV mCherry inh | VACV Venus inh
Cc1cc(C)nc(/N=C(\N)Nc2ccc(S(=O)(=O)Nc3nccc(C)n3)cc2)n1 | -14.1% | -8.3%
Cc1ccc(NC(=O)Cc2cn3ccsc3n2)nc1 | · | -3.2%
COc1ccc(NS(=O)(=O)c2cc(NC(=O)[C@@H](NC(=O)c3ccccc3)C(C)C)ccc2C)cc1 | -15.5% | -28.7%
CCOc1ccc(S(=O)(=O)/N=C(/Nc2ccc(C)c(S(=O)(=O)N3CCOCC3)c2)c2ccccc2)cc1 | ? | -18.8%
CCOC(=O)C(CO)NC(=O)C1(NC(C)=O)CCCC1 (configuration not stated) | i | -3.4%
Cc1ccc2c(c1)N(CC(=O)NCCc1c[nH]c3ccccc13)C(=O)CO2 | -17.7% | -2.9%
Cc1ccc(C(=O)C(C(=O)/C=C/c2ccccc2)=C2SCCCS2)cc1 | ? | ?
Cc1ccnc(NC(=O)CCCc2ccc(N(CCCl)CCCl)cc2)n1 | -20.9% | -8.9%
Cc1cc(/C=C2\C(=O)NC(=S)N(C)C2=O)c(C)n1C1CCCCC1 | -7.2% | -1.0%
CC(OC(=O)c1cccc(S(=O)(=O)N2CCCC2)c1)C(=O)c1ccccc1 (configuration not stated) | -11.1% | -7.2%
COc1cccc(CNC(=O)Cc2ccc(NC(=O)C3=C(C)OCCS3)cc2)c1 | -8.2%[7.34 µM] | 0.0%[7.34 µM]
O=CNc1ccccc1Oc1ccccc1 | -23.7% | -20.1%
COc1ccc(NC(=O)/C(=C/c2cccnc2)NC(=O)c2cccs2)cc1 | -12.8% | -9.7%
NS(=O)(=O)c1ccc(CNC(=S)NCc2ccc(F)cc2)cc1 | -6.5% | -1.3%
O=C(CSc1ncnc2sc3c(c12)CCCC3)c1ccco1 | · | ?
Cc1ccc(S(=O)(=O)N(CC(=O)Nc2cccc(N(C)S(C)(=O)=O)c2)c2ccc(Cl)c(Cl)c2)cc1 | -22.1% | -26.7%
COc1ccc(/C=C/C(=O)NC(=S)NCCc2ccc(OC)c(OC)c2)cc1 | ? | ?
CN(C(=O)CCN1C(=O)c2ccccc2C1=O)C1CCCCC1 | -4.5% | -13.1%
COc1ccc(S(=O)(=O)N(Cc2ccccc2)Cc2nc(-c3ccccc3)no2)cc1 | · | -7.0%
OCCN1CCN(c2ncnc3nc[nH]c23)CC1 | 8.3% | -1.6%
COC(=O)[C@@H]1Cc2c([nH]c3ccccc23)C(C)(C)N1C(=O)CCl | ? | ?
O=C(NCc1ccccc1OC(F)(F)F)C1CCC(=O)N(C2CC2)C1 (configuration not stated) | i | -8.5%

Ordered by length of the SMILES (largest number first): some entries from above
SMILES | VACV mCherry inh | VACV Venus inh
Cc1cc(C)c(NC(=O)CN(C)S(=O)(=O)c2ccc3c(c2)n(C)c(=O)c(=O)n3C)c(C)c1 | -21.2% | -29.6%
COc1ccc(NC(=O)/C(=C/c2cccnc2)NC(=O)c2cccs2)cc1 | -12.8% | -9.7%
CCOC(=O)C(CO)NC(=O)C1(NC(C)=O)CCCC1 (configuration not stated) | i | -3.4%

Bioassay records deposited in PubChem by National Center for Advancing Translational Sciences (NCATS).
